2A Renilla: Primary qHTS Assay for Foot and Mouth Disease Virus Antivirals against NCGC Sytravon and CBC Compound Libraries: Renilla Luciferase Signal | HEK cells with a luciferase reporter of 2A StopGo recoding | Potency, µM (titrated, usually from 57.5 µM), for the others: at the highest dose signal change, negative = less light | 120,000 tested, 0.32% active; active means well fitted falling curve with a large enough effect; inconclusive means small, poorly fitted or top-dose-only effect; inactive means no such curve, though single readings can be large or run the other way; further: nearly all actives have a fitted effect of over 55% in size; overnight with compound
StopGo FLuc: Primary qHTS Assay for Foot and Mouth Disease Virus Antivirals against NCGC Sytravon and CBC Compound Libraries: Firefly Luciferase Signal | HEK cells with a luciferase reporter of 2A StopGo recoding | Potency, µM (series often up to 57.5 µM), for inactives: at the top dose signal change, negative = less light | 120,000 tested, 0.23% active | AID 1745856, 2022; active = well fitted falling curve with a large enough effect; inconclusive = small, poorly fitted or top-dose-only effect; inactive = no such curve, though single readings can be large or run the other way; further: nearly all actives have a fitted effect of over 60% in size; overnight with compound
Active calls of the source: *; ? = inconclusive; & = joins results of further samples; [ ] = another dose, or the depositor's remark. On the % scale 0 is the no-effect control and ±100 the full control effect; potency means the concentration at half of the fitted maximal effect.

The first two entries, to show the layout:
SMILES | 2A Renilla | StopGo FLuc
CCOc1cc(C2NC(=O)c3c(sc4c3CCN(C)C4)N2)ccc1OC(=O)c1ccccc1Cl (stereo not given) | -4.9% | -4.4%
CCc1ccc(-n2nc(C)c3c(C(=O)Nc4cc(C)c(Cl)cc4OC)cc(C)nc32)cc1 | 3.2% | -0.7%

The listing, from the start:
SMILES | 2A Renilla | StopGo FLuc
CCOc1cc(C2NC(=O)c3c(sc4c3CCN(C)C4)N2)ccc1OC(=O)c1ccccc1Cl (stereo not given) | -4.9% | -4.4%
CCc1ccc(-n2nc(C)c3c(C(=O)Nc4cc(C)c(Cl)cc4OC)cc(C)nc32)cc1 | 3.2% | -0.7%
CCC(=O)N1CCc2cc(S(=O)(=O)CCC(=O)N3CCN(c4ccccc4Cl)CC3)ccc21 | 4.8% | 5.6%
Cn1cc(CN(C(=O)Nc2ccccc2)C2CCCCC2)c2ccccc21 | 0.0% | 85.0%[activator]
CCCS(=O)(=O)N1CC(=O)N(c2ccccc2F)C(C)(C(=O)NC2CCCCCC2)C1 (stereo not given) | -11.3% | -20.9%
CCOC(=O)c1c(C)oc2nc(C)nc(NCC3CCN(Cc4ccc(C)cc4)CC3)c12 | -16.7% | -16.0%
Cn1nc(C(=O)N2CCN(c3ccc(F)cc3)CC2)c2c1-c1ccccc1SC2 | -16.0% | -6.8%
CC(=O)Nc1ccc(NC(=O)COc2ccc3c(C)cc(=O)oc3c2)cc1 | 8.2% | 33.6%[activator]
Cc1ccsc1C=Nc1ccc(-c2ccc(N=Cc3sccc3C)cc2)cc1 | 22.9% | 11.6%
Cc1ccc(NS(=O)(=O)c2ccc3[nH]c(=O)ccc3c2)cc1N(C)C | 143.7%[activator] | 51.6%[activator]
COC(=O)C1=CN(Cc2ccc(OC)cc2)C=C(C(=O)OC)C1c1ccc(OC)cc1 | 19.3% | 8.4%
COCCN1C(=O)N(c2cccc(OC)c2)C(=O)C1CC(=O)Nc1ccccc1 (stereo not given) | 41.3%[activator] | 7.7%
CC1CCCN(C(=O)c2ccccc2CSc2nc3ccccc3o2)C1 (stereo not given) | 166.2%[activator] | 15.4%
CCCCCn1c(COc2ccccc2Cl)n[nH]c1=S | 23.6% | 121.8%[activator]
Cc1cccc(OCCn2c(SCC(=O)O)nc3ccccc32)c1 | -11.2% | -7.3%

3 compounds from above, arranged by SMILES length, rising.
SMILES | 2A Renilla | StopGo FLuc
Cc1cccc(OCCn2c(SCC(=O)O)nc3ccccc32)c1 | -11.2% | -7.3%
CC(=O)Nc1ccc(NC(=O)COc2ccc3c(C)cc(=O)oc3c2)cc1 | 8.2% | 33.6%[activator]
Cn1nc(C(=O)N2CCN(c3ccc(F)cc3)CC2)c2c1-c1ccccc1SC2 | -16.0% | -6.8%

The listing continues:
SMILES | 2A Renilla | StopGo FLuc
O=C1C(c2ccc(F)cc2)N(CCc2ccc(Cl)cc2)C(=O)CN1C1CCCCC1 (stereo not given) | 0.0%&13.2% | 4.3%&-4.7%
Cc1nnc(SCc2cc(=O)c3cc(F)ccc3[nH]2)n1C | -5.4% | 8.5%
Cc1ccc(NC(=O)C2(C)Cc3ccccc3C(=O)O2)c(C)c1 (stereo not given) | 11.2% | 35.5%[activator]
CCOC(C(=O)NC(C)CC)(c1ccccc1)c1ccccc1 (stereo not given) | 24.0% | -7.3%
C/C(=N/Nc1ccc([N+](=O)[O-])cc1[N+](=O)[O-])C(C)(C)C | -10.0% | 12.1%
N#Cc1nc(-c2ccc(COc3ccc(Cl)cc3)o2)oc1N1CCCCC1 | -5.0% | -6.2%
CC(C)CCn1cnc2c1c(=O)n(Cc1ccccc1C#N)c(=O)n2Cc1ccccc1 | -5.6% | 2.4%
Cc1cc(C(=O)NCCN(C)C)c2ccccc2n1 | -17.0% | -11.3%
CC(=O)Nc1ccc(S(=O)(=O)NC2(C(F)(F)F)C(=O)Nc3c2c(=O)[nH]c(=O)n3-c2cccc(Cl)c2)cc1 (stereo not given) | -10.9% | -10.7%
CCCCCCCCS(=O)(=O)CCSc1cccc2cccnc12 | -2.4% | -8.3%
CCc1nnc(SCC(=O)Nc2cccc(C(F)(F)F)c2)c2cc3oc(C)cc3n12 | -8.6% | -7.3%
COc1cc(NC(=O)C2CCCN2C(=O)C23CC4CC(CC(C4)C2)C3)c(OC)cc1Cl (stereo not given) | -7.1% | -13.5%
CN(C)S(=O)(=O)c1ccc2c(c1)N(CC(=O)Nc1cccc(C(F)(F)F)c1)C(=O)CS2 | 38.1%[activator] | 7.3%
CC(C)CC(=O)Nc1ccc(C(=O)Nc2ccc(CCC(=O)O)cc2)cc1 | 5.1% | 9.2%
CCOc1ccc(/C=C(/C#N)C(=O)Nc2cccc3ncccc23)cc1 | -15.6% | -16.7%
CC(C)=CC1C=C(C)C(C)C(c2ccccc2)C1C(=O)c1ccccc1 (stereo not given) | 0.9% | -8.7%
S=C(N/N=C1/CCCCc2ccccc21)NC1CCCCC1 | 73.3%[activator] | 10.5%
NC(=S)N/N=C/c1cccc(Cl)c1 | 0.5% | 18.2%
COc1cccc(C(=O)CC2(O)C(=O)Nc3ccc(Cl)cc32)c1 (stereo not given) | 12.8% | -7.4%
CCC(CC)NC(=O)Nc1ccc(C)cc1Br | 5.7% | 13.9%
Cc1ccc(C)c(NC(=O)CCC2CCCC2)c1 | 33.3%[activator] | 51.6%[activator]
CC(C)(C)c1cc(/C=C/C(=O)O)cc(C(C)(C)C)c1O | 6.9% | 0.0%
O=C(Nc1ccc(I)cc1)C1CCCCC1 | -2.7%[1.06 µM] | 115.0%[activator]
Cc1ccc(C)c(Nc2nc(N3CCN(c4ccc(F)cc4)CC3)nc3nccnc23)c1 | -14.5% | -0.7%
CCOc1ccc(-c2cn3c(n2)sc2cc(C(=O)NCCc4ccc(OC)cc4OC)ccc23)cc1 | -20.9% | 8.3%
Cc1ccc(S(=O)(=O)N2CCN(C(=O)c3cc4cc(C)ccc4nc3C)CC2)c(C)c1 | -27.4% | 0.0%
O=C1c2ccccc2C(=O)c2c1ccc(O)c2O | -15.1% | -5.6%
CCOC(=O)CSc1nc2c(c(=O)[nH]c(=O)n2C)n1CC | -17.8% | -13.9%
COc1ccc(NC(=O)c2ccccc2SCc2ccc(C#N)cc2)cc1OC | -19.5% | -12.2%
O=C(O)c1ccc(C(=O)C2CCCCC2C(=O)O)cc1 (stereo not given) | 2.0% | -1.6%
Cc1cc2nc(-c3ccc(NC(=O)C(C)C)cc3)oc2cc1C | 9.0% | 137.4%[activator]
CC(CNC(=O)c1ccc(C(C)(C)C)cc1)NC(=O)c1ccc(C(C)(C)C)cc1 (stereo not given) | -1.8% | 21.1%
COc1cc(OC)cc(C(=O)Oc2cc(C)cc(C)c2)c1 | 6.3% | -1.9%
COC(=O)c1cc(S(=O)(=O)NCC2CCN(Cc3ccc(F)cc3)CC2)c[nH]1 | 9.4% | 19.5%
COc1cccc(NC(=O)Cn2c(=O)oc3cc(S(=O)(=O)N4CCCCC4)ccc32)c1 | 31.8%[activator] | ?
CCOc1ccc2nc(NC(=O)c3cc(=O)c4ccc(C)cc4o3)sc2c1 | -4.1% | -11.1%
Cc1ccccc1Nc1c(-c2ccc(N3CCOCC3)cc2)nc2cccc(C)n12 | -6.7% | 54.9%[activator]
N#CC1(NC(=O)CSc2nccn2C2CC2)CCCC1 | -6.8% | -4.8%
COc1cccc(CNC(=O)C2CCN(S(=O)(=O)c3c(C)noc3/C=C/c3cccs3)CC2)c1 | -15.5% | -24.8%
CCC(=O)N1c2ccccc2CC1C(=O)NCCc1cc(OC)c(OC)c(OC)c1 (stereo not given) | -20.0% | -18.6%
Cc1ccc(S(=O)(=O)N(C)C)cc1C(=O)NCc1coc(-c2cccs2)n1 | 16.9% | 1.1%
O=C(NCCc1ccccc1)c1sc2ncccc2c1-n1cccc1 | 51.0%[activator] | 79.6%[activator]
CCc1nn2c(=O)cc(COC(=O)CNC(=O)COc3ccc(C)cc3)nc2s1 | 15.0% | 9.5%
COc1ccc2c(C)nc(Nc3nc(-c4ccccc4)cc(=O)[nH]3)nc2c1 | -10.5% | -11.4%
O=C(Nc1ccc2oc(-c3cccnc3)nc2c1)c1ccc(OCc2ccccc2)cc1 | 0.6% | 25.2%
CCN(CC)CCNC(=O)Cn1ncc2c3ccccc3n(Cc3ccc(Cl)cc3)c2c1=O | 5.4% | -8.5%
CCC1CCCCN1S(=O)(=O)c1ccc(NC(=O)c2cc(=O)c3cc(C)ccc3o2)cc1 (stereo not given) | 1.4% | 7.8%
Cc1c(S(=O)(=O)c2ccccc2)c(N)n(Cc2cccs2)c1C | 47.8%[activator] | -2.2%
COCCNC(=O)CSc1cn(CC(=O)N2CCCCCC2)c2ccccc12 | -15.8% | 0.0%
COc1ccc(C(=O)Nc2ccc3nc(SCC(=O)N4CCOCC4)sc3c2)cc1 | 9.3% | 4.9%
CCc1ccc(NC(=O)CC2C(=O)N(c3ccc(C)cc3)C(=O)N2CCc2ccncc2)cc1 (stereo not given) | 28.1% | -13.3%
COc1ccc(-c2cn3nc(N4CCCC(C(=O)NCc5ccccc5Cl)C4)sc3n2)cc1 (stereo not given) | -17.6% | 74.0%[activator]
Cc1ccc2[nH]c(=O)c(CNc3cccc(C)c3C)cc2c1 | 26.6% | 81.2%[activator]
COc1cc(/C=C2/NC(=O)NC2=O)cc(Cl)c1OCc1cccc(C(=O)O)c1 | 4.0% | 10.6%
Cc1ccc(B(O)O)c2cccnc12 | -3.2%[1.06 µM] | ?
Cc1cc2ccccc2n1CC(=O)NCCCCCC(=O)O | -15.9% | -10.7%
CCCc1cc(=O)[nH]c(SCc2nnc(-c3ccc(OC)cc3)o2)n1 | 25.6% | 1.5%
Cc1cc2c(cc3c(SCc4ccc(Cl)cc4)nnc(C)n32)o1 | 3.0% | 42.1%[activator]
NC(=O)Nc1ccc(Cl)c(NS(=O)(=O)c2ccccc2Br)c1 | 1.8% | -8.0%
COCCOc1cccc(F)c1C(=O)/C=C/c1ccc(C#N)cc1 | 33.8%[activator] | 1.0%
Further entries:
SMILES | 2A Renilla | StopGo FLuc
CC(C)NC(=O)C(C)Sc1nc2ccc(F)cc2c(=O)[nH]1 (stereo not given) | -23.9% | -18.4%
CC1CCC(NC(=O)c2ccc3c(Cl)c4c(nc3c2)CCCC4)CC1 (stereo not given) | 8.3% | 58.8%[activator]
Cc1ccc(NC(=O)CCC(=O)N2Cc3ccccc3Oc3ncccc32)cc1Cl | -11.5% | -11.2%
COC(=O)C12CC3CCC(CC(C(=O)OC)(C1)C3=O)C2=O | 7.2% | 7.0%
COc1ccc2cc(C(=O)N(C)C3CCS(=O)(=O)C3)[nH]c2c1 (stereo not given) | 7.8% | 162.8%[activator]
COc1ccc(N2CCN(C(CNC(=O)C(=O)NCCCN(C)C)c3cccnc3)CC2)cc1 (stereo not given) | ? | ?
CC(=O)N(Cc1ccccc1)Cc1cc2cccc(C)c2[nH]c1=O | -7.7% | -2.5%
O=C(NC1CC(=O)N(c2cccc(F)c2)C1)c1ccc(S(=O)(=O)N2CCCC2)cc1 (stereo not given) | -15.0% | 1.5%
Cn1c(=O)cc(SCC(=O)NCc2ccc(F)cc2)c2ccc(Cl)cc21 | 0.3% | -18.6%
COc1ccc(NC(=O)c2ccco2)cc1NC(=O)c1cccc(C)c1OC | 30.7%[activator] | -3.6%
O=C1CCc2cc(S(=O)(=O)NC(C(=O)Nc3ccc(F)cc3)c3ccccc3)ccc2N1 (stereo not given) | ? | -15.5%
CN1C(=O)CC[C@H]1c1cccnc1 | -8.3% | -16.3%
Cc1oc2c(c1C(=O)Nc1ccc(Cl)cc1F)C1=NCCN1C=N2 | -0.9% | -0.1%
CCN1CCCC1CNC(=O)C(C)(C)C (stereo not given) | 19.5% | 0.0%
CN1CCN(CCCNC(=O)c2nc(-c3ccc4[nH]ccc4c3)no2)CC1 | -3.2% | 11.0%
O=C(Nc1cccc(F)c1)C1CCCN(c2nnc(-n3cccc3)s2)C1 (stereo not given) | -19.9% | -1.8%
CC(=O)Nc1nonc1-c1nnc(SCc2ccc(F)cc2)n1C | -4.0% | 2.3%
COc1ccc(-c2nc(C#N)c(NCC(C)C)o2)cc1 | 65.0%[activator] | 172.6%[activator]
Cn1c(=O)c2c(-c3ccc(Br)cc3)n(CCc3ccccc3)cc2n(C)c1=O | 12.0% | 113.9%[activator]
Fc1cc(F)cc(-c2noc3ncnc(NCc4ccco4)c23)c1 | 8.5% | -8.3%
COc1ccc(CCNC(=O)C(C)n2nc(C)c3c(C)n(-c4ccccc4)nc3c2=O)cc1OC (stereo not given) | 8.9% | 22.7%
CCOC(=O)c1c(-c2ccccc2)oc2ccc(NS(=O)(=O)c3ccc(C)cc3)cc12 | 244.7%[activator] | 7.2%
Cc1cccc2nc(Cn3c(=O)n(-c4ccc(Cl)cc4)c(=O)c4c5c(sc43)CCC5)cc(=O)n12 | -15.5% | ?
Cc1cnc(NC(=O)[C@@H](NC(=O)c2ccccc2F)C(C)C)s1 | 20.7% | 32.7%[activator]
COC(=O)c1cc(N)cc(C(=O)OC)c1 | -2.9% | 4.7%
COc1ccc(CNC(=O)COC(=O)c2ccc(F)c(S(=O)(=O)N3CCCCC3)c2)cc1OC | -6.2% | -11.7%
COc1ccc(NC(=O)CSC2=Nc3ccccc3C3=NC(CC(=O)NCc4ccc(F)cc4)C(=O)N23)cc1 (stereo not given) | -12.3% | -28.3%
CC(C(=O)NCc1ccccc1)n1ccc2cc(S(=O)(=O)N3CCCC3)ccc21 (stereo not given) | 4.2% | -21.7%
CC(=O)N1CCN(C(C(=O)O)c2c[nH]c3ccccc23)CC1 (stereo not given) | 6.6% | -14.6%
N#Cc1nc(-c2ccccc2F)oc1NCc1ccccc1Cl | 63.5%[activator] | 24.7%

A portion of the library (hit frequency here may not be typical).
